TRPML1 inh = qHTS for Inhibitors of the Human Mucolipin Transient Receptor Potential 1 (TRPML1); activity change, negative = inhibition, % (test concentration not listed); 390,000 compounds, 0.02% hits; AID 624415, 2012; Mucolipin-1 (Homo sapiens), Q9GZU1; TRPML1-inducible cells, Ca2+ dye fluorescence, FDSS; active compounds read low; inhibition of EC80 agonist-evoked calcium signal; in the data active means activity change below about -50%; inconclusive means about -30% to -50%; inactive means above about -30%;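 note: stimulus is agonist 54-4 at its EC80 concentration; % is set by controls: 0 for no effect and ±100 for the full control effect; compound concentration not given in the record; the text of the record puts the active cut at -80%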
Target sequence (Q9GZU1 whole entry, looked up): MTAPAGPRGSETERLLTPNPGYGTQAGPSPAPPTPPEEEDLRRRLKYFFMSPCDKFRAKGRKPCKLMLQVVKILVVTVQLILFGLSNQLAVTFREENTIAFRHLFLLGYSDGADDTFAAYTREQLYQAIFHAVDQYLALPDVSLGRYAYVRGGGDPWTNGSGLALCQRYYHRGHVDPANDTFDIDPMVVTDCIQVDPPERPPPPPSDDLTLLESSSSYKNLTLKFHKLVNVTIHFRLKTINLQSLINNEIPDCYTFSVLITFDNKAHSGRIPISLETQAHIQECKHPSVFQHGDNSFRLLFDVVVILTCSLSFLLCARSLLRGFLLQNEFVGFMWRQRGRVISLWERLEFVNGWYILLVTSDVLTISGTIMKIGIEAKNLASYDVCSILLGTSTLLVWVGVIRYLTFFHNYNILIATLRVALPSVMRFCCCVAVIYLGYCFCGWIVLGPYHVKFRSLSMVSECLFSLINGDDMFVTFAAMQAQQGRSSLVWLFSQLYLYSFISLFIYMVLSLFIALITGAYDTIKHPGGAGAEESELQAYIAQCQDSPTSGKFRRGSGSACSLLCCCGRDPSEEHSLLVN
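TRPML1-DL cells, Tet-induced overnight (~16 h, 37 °C) at 1,500 cells/well, were loaded with Ca8 no-wash dye plus quencher for 45-90 min at room temperature. Compounds were pinned during FDSS kinetic reading; agonist 54-4 at EC80 (4 uM final) then added.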
PINK1 expr mod = A Quantitative High throughput Screen to Identify Chemical Modulators of PINK1 Expression; PINK1 immunofluorescence, high-content cytometry, 24 h; Potency, µM (highest dose often 76.6 µM), without a hit: at the highest dose activation (PINK1 increase), actives largely listed as activators; 410,000 compounds, 0.2% hits; active = well fitted activation curve with a large enough effect; inconclusive = small, poorly fitted or top-dose-only effect; inactive = flat fitted curve, though single readings scatter; cell line not stated here;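 note: potency is the fitted concentration of half-maximal effect; % of control where 0% means no effect; nearly all actives have a fitted effect of over 65% in size; a mitochondrial uncoupler was the plate control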
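Stable cell line treated 24 h with compounds at 5 concentrations (CCCP controls), then fixed and immunostained for PINK1 plus nuclear and cell stains; PINK1 immunofluorescence quantified by laser-scanning microplate cytometry.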
Six1-Eya2 blk = qHTS Assay for Inhibitors of the Six1/Eya2 Interaction. Homeobox protein SIX1 (Homo sapiens) + Protein phosphatase EYA2 (Homo sapiens), …. AlphaScreen GST-Six1/His-Eya2 binding, biochemical; active compounds read low; control for the full effect not named in the record. 360,000 compounds, 0.56% hits. activity change, % (concentration not given with the values); in the data active = activity change below about -65%; inconclusive = about -30% to -65%; inactive = above about -30%; note: % is set by controls: 0 for no effect and ±100 for the full control effect
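GST-Six1 + His-Eya2 (5X stock: 250/500 nM); Tris pH 8.0, 300 mM NaCl, 0.05% BSA, 0.02% Tween 20; GSH donor/Ni acceptor beads; 1 h 37 °C dark; AlphaScreen readout.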
CtBP-E1A blk = qHTS Assay for Inhibitors of the CtBP/E1A Interaction; AlphaScreen GST-E1A/His-CtBP binding, 1536-well; active compounds read low; control for the full effect not named in the record; activity change, % (no concentration beside the values); 340,000 compounds, 0.49% hits; in the data active means activity change below about -65%; inconclusive means about -30% to -65%; inactive means above about -30%; note: % is set by controls: 0 for no effect and ±100 for the full control effect
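AlphaScreen with 125 nM GST-E1A and 125 nM His-CtBP (5X stocks) in Tris pH 8.0, 300 mM NaCl, BSA, Tween 20, TCEP. Compounds preincubated 2 h at 37 deg C, then glutathione donor/nickel acceptor beads added for 1 h at 37 deg C in dark.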
D2 agonist = Beta-Arrestin HTS for Positive Allosteric Modulators of the Human D2 Dopamine Receptor: Agonists. D(2) dopamine receptor (Homo sapiens), P14416. DiscoveRx PathHunter D2 beta-arrestin, luminescence, 90 min; 100% = 57 uM dopamine signal. activation, % (no concentration beside the values). 360,000 compounds, 0.084% hits. AID 624465, 2012; in the data active = activation above about 40%; inconclusive = about 15% to 40%; inactive = below about 15%; note: compound concentration not given in the record; the text of the record calls up to 30% inactive
Target sequence (P14416 whole entry, looked up): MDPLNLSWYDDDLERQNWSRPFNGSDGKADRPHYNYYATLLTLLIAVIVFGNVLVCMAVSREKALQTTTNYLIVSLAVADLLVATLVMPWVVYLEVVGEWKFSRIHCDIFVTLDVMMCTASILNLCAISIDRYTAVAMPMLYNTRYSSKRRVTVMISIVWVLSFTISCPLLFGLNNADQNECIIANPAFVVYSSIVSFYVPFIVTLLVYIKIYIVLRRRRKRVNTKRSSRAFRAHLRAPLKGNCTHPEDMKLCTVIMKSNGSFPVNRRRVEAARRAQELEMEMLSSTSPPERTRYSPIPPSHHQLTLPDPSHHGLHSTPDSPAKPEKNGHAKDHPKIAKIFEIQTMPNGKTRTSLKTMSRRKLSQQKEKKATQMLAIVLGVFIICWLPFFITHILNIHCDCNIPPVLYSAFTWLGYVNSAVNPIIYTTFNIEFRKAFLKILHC
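DiscoveRx PathHunter D2 beta-arrestin cells (2,100/well) attached overnight, then compound-stimulated 90 min at 37 C in HBSS/10 mM HEPES/0.1% Tween-20 buffer; beta-galactosidase complementation read by luminescence after 1 h at ambient temperature. Dopamine 57 uM final (EC100) as control.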
TRPML1 ag = qHTS for Agonists of the Human Mucolipin Transient Receptor Potential 1 (TRPML1) | Mucolipin-1 (Homo sapiens), Q9GZU1 | TRPML1-expressing cells, Ca2+ dye fluorescence, FDSS; host cell line not named in the record; reference of the full effect not given here | activation, % (concentration not given with the values) | 410,000 compounds, 0.12% hits; in the data active = activation above about 50%; inconclusive = about 30% to 50%; inactive = below about 30%; note: 0% is about no effect; the text of the record puts the active cut at 80%
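Tetracycline-induced TRPML1-DL cells are seeded and incubated overnight before loading with a no-wash Ca2+ dye and quencher. Agonist activity is taken from the 110 s fluorescence read following compound pin-transfer on an FDSS, before EC80 54-4 challenge.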
Active calls of the source: *; ? = inconclusive; · = no result given; [ ] = another dose, or the depositor's remark. Rows were taken by chance. About 1% of those tested had a hit in this group.

SMILES	TRPML1 inh	PINK1 expr mod	Six1-Eya2 blk	CtBP-E1A blk	D2 agonist	TRPML1 ag
CCN(CC)CCCNC(=O)C(C)n1nc(C)n2c(cc3occc32)c1=O (centres undefined)	-15	1.1%	·	·	·	-0.1
COC(=O)c1[nH]c2ccc(F)cc2c1NC(=O)C1=COCCO1	-9	-0.9%	-17	-1	-6.6	-0.4
CC(C)N1CCc2c(sc(NC(=O)CN3C(=O)c4ccccc4C3=O)c2C(N)=O)C1	-10	-0.6%	1	-6	-2.4	0.4
CCOC(=O)c1c(-c2ccccc2)oc2ccc(NS(=O)(=O)c3ccc(C)cc3C)cc12	-5	0.1%	·	·	·	-1.3
Cc1[nH]c2ccccc2c1C(=O)/C=C/c1ccccc1Cl	8	4.1%	-6	-15	-2.6	2.1
COc1ccc(NC(=O)C2Cc3c(-c4ccc(Cl)cc4)ccnc3O2)cc1OC (centres undefined)	·	1.1%	-5	-3	12	-0.5
COc1ccc(NC(=O)CCC(=O)Nc2nnc(C(F)(F)F)s2)c(OC)c1	3	-2.1%[38.3 µM]	1	2	-2.6	0.0
CC(C)C[C@H]1COCCS(=O)(=O)N1Cc1cccc(F)c1	-9	-0.1%	7	4	-1.5	0.9
CCNc1ccc([N+](=O)[O-])cc1	0	-0.8%	-6	-12	2.3	1.7
O=C(CCCCCNC(=O)c1ccccc1)N/N=C/c1ccc(F)cc1	7	0.9%	5	4	-2.2	1.7
C[C@@H](C(=O)Nc1ccc2ccccc2c1)[C@@H]1C[C@@]1(C)[C@@H](NC(=O)c1cnccn1)c1ccccc1	9	0.8%	-3	0	-4.7	-0.4
O=C(/C=C/[C@H]1O[C@@H](n2ccc(=O)[nH]c2=O)[C@H](O)[C@@H]1O)N[C@@H](Cc1ccccc1)C(=O)O	34	0.8%	4	12	-3.1	1.4
Cc1cn(C(=O)c2ccccc2)c(=S)n1-c1ccc(Cl)cc1	-3	-0.9%[38.3 µM]	-2	3	-3.3	1.5
CSC1=NC(C)(C)C=C(/C=C/c2ccc(Cl)cc2)N1	1	-2.3%	17	13	-8.7	1.2
COC(=O)CSc1nnc(COc2cccc3ccccc23)o1	2	-1.5%	24	7	0.2	0.2
CCN1C(=O)CSc2ccc(C(=O)OC)cc21	-2	2.1%	0	1	9.2	-0.1
C#CCn1cc(/C=N/NC(=O)COc2cccc3cccnc23)c2ccccc21	-14	-1.6%	-6	2	-1.8	1.2
CC(=O)NC1C(=O)N(CCN2CCOCC2)c2ccc(F)cc21 (centres undefined)	-6	2.9%	-4	·	-9.2	1.5
Cc1noc(C)c1CSc1nc2cc(S(=O)(=O)N3CCOCC3)ccc2o1	-2	3.5%	3	3	-3.1	0.6
CC1(C)C2CCC1(CS(=O)(=O)N1CCOCC1)C(=O)C2 (centres undefined)	-5	3.5%[38.3 µM]	1	3	-0.7	-0.1
COc1ccc(-c2csc(NC(=O)CSCc3c(C)noc3C)n2)c(OC)c1	-4	-0.4%	-19	-21	5.4	2.4
CCOC(=O)c1[nH]c(C)c(C(=O)C(C)C)c1C	-11	4.1%[38.3 µM]	1	-6	1.5	0.6
CC(C)c1cccc(C(C)C)c1NC(=O)c1ccc(-c2cc(Cl)ccc2Cl)o1	1	6.4%	-22	-6	1.1	0.0
CCOC(=O)N1CCN(c2ccc3nnnn3n2)CC1	13	5.7%	-2	-1	-3.4	4.6
O=C(CCNS(=O)(=O)c1ccccc1F)N1CCN(Cc2ccccc2)CC1	3	-1.9%	-1	5	-9.0	-0.8
O=S(=O)(c1ccccc1C(F)(F)F)N1CCN(c2ncnc3sccc23)CC1	-12	-0.6%	-3	6	3.0	0.1
COc1ccc(Br)cc1CN1C(=O)c2ccccc2C1C(=O)NC1CCCCCC1 (centres undefined)	12	3.6%	·	·	·	2.8
Cc1ccc(C(=O)NCC(=O)NCC(=O)OCc2ccc(Cl)cc2)cc1	0	1.0%	5	-7	-1.3	0.9
CC1(C(=O)NS(=O)(=O)C2CC2)CCCN(C(=O)C2(c3ccc(Cl)cc3)CCCC2)C1 (centres undefined)	·	0.0%	7	3	-4.0	-0.5
O=C(OCc1cc(=O)c(OC(=O)c2ccccc2)co1)c1ccccc1	24	0.2%	-11	3	-0.2	1.5
Cc1ccccc1CN(C)C(=O)c1ccc2ccccc2n1	11	0.8%	-2	2	-2.4	-0.2
CCOc1ccc(OCCCC(=O)NNC(=O)c2ccncc2)cc1	5	-1.5%	2	-4	-2.8	-0.3
CCN(CC)CCCN1C(=O)C(=O)/C(=C(/O)c2cc(C)ccc2C)C1c1cccnc1 (centres undefined)	3	-0.4%	3	0	-0.6	-0.3
CC1Cc2ccccc2N1S(=O)(=O)c1cccc(C(=O)NCc2ccccn2)c1 (centres undefined)	12	1.2%	20	·	5.7	-0.7
COc1cccc(C(=O)NC(=S)N2c3ccccc3CC2C)c1OC (centres undefined)	-1	2.9%	-5	-16	-1.8	-0.3
CSc1nsc(SC)c1C(=O)Nc1ccc(Cl)cc1	39	7.6%	-5	·	2.0	1.0
CC(=O)O[C@@H]1[C@H]2[C@@H](C[C@@H](C)[C@@H]3C=CC(=O)[C@@]13C)OC(=O)[C@@H]2C	2	0.7%	3	2	-1.4	-0.4
CCN1CC(CN(C)Cc2cn(-c3ccc(C)cc3)nc2-c2cccc(C)c2)CC1=O (centres undefined)	20	2.1%	-3	-16	0.3	-0.3
CCCCNc1cc(F)nc(N)n1	6	-0.5%	3	4	0.7	4.7
Cc1ccc(C(=O)c2cc([N+](=O)[O-])ccc2N2CCOCC2)cc1C	0	-0.1%	-7	-8	-1.8	0.0
CN(C)C(=O)c1ccc(NC(=O)COc2cccc(Oc3ccccc3)c2)cc1	2	-1.6%	9	4	-3.7	-0.8
CC(=O)c1cccc(NC(=O)c2cc(=O)c3ccccc3o2)c1	-5	8.7%	3	·	-2.8	-0.6
Cc1ccc(-c2nc3ccccc3[nH]2)cn1	2	1.9%	-4	1	?	-0.2
Cc1ccc(NC(=O)CSc2nsc(SCC(=O)Nc3ccc(C)cc3C)c2C#N)c(C)c1	0	6.2%	16	1	-3.3	1.5
COCCn1c(SCC(=O)Nc2ccc(F)cc2F)nc2c(c1=O)SCC2	3	1.5%	0	1	2.6	0.1
O=C1C2C3CCCC3=C3CCCC3C2C(=O)N1c1cccc(Cl)c1 (centres undefined)	0	-1.7%	0	0	-4.6	1.1
COc1cccc(NC(=O)c2sc(NC(=O)c3ccncc3)nc2C)c1	3	1.9%	3	·	0.5	-0.6
CCCSc1nc2c(c(=O)[nH]c(=O)n2C)n1Cc1ccccc1	-10	3.1%	-17	·	-4.4	-0.1
CCOC(=O)COc1ccc([N+](=O)[O-])cc1	2	1.5%	-9	3	-8.0	-0.3
COc1ccc(C)cc1S(=O)(=O)N1CCC2(CC1)OCCN2S(=O)(=O)c1ccccc1	28	3.1%	-2	2	-0.3	0.0
O=C(OCC(=O)c1c[nH]c2ccccc12)c1ccco1	-2	-2.9%	12	-10	-0.9	0.6
CCOC(=O)c1sc2ccccc2c1S(=O)(=O)N1CCN(c2ccccc2)CC1	2	1.1%	·	·	·	0.1
COc1cc(CSC)nc(-c2ccccc2)n1	14	19%	4	-5	-6.5	3.3
CSc1nc(C)c2c(c1C#N)CCCC2	0	-0.6%	18	38	-4.8	-1.6
Cc1csc(NC(=O)c2cccn2C)n1	-16	-5.5%[38.3 µM]	-7	-13	1.0	0.1
NS(=O)(=O)c1ccc(CCNC(=O)c2cccc([N+](=O)[O-])c2)cc1	17	1.2%	4	-5	-0.3	0.6
NCCCC(=O)N1c2ccccc2Sc2ccccc21	-19	1.3%	3	-3	-1.2	-0.1
COc1ccccc1OCC(=O)Nc1sc2c(c1C(N)=O)CCC2	21	2.6%	-11	·	-1.6	-1.8
NNc1nc2c(-c3ccc(F)cc3)nnn2c2ccccc12	-14	1.5%	-1	0	5.5	0.4
CCOC(=O)CN1C(=O)C(C)(C)Oc2ccc(C(=O)NC(C)(C)CC)cc21	-2	-0.3%	6	-8	-1.4	0.8

A different layout for part of the listing above.
Screens in order: TRPML1 inh | PINK1 expr mod | Six1-Eya2 blk | CtBP-E1A blk | D2 agonist | TRPML1 ag
- COCCn1c(SCC(=O)Nc2ccc(F)cc2F)nc2c(c1=O)SCC2
 : 3 | 1.5% | 0 | 1 | 2.6 | 0.1
- CC(=O)NC1C(=O)N(CCN2CCOCC2)c2ccc(F)cc21 (centres undefined)
 : -6 | 2.9% | -4 | · | -9.2 | 1.5
- CC(=O)c1cccc(NC(=O)c2cc(=O)c3ccccc3o2)c1
 : -5 | 8.7% | 3 | · | -2.8 | -0.6
- O=C(CCCCCNC(=O)c1ccccc1)N/N=C/c1ccc(F)cc1
 : 7 | 0.9% | 5 | 4 | -2.2 | 1.7
- CCOc1ccc(OCCCC(=O)NNC(=O)c2ccncc2)cc1
 : 5 | -1.5% | 2 | -4 | -2.8 | -0.3
- COc1ccc(NC(=O)C2Cc3c(-c4ccc(Cl)cc4)ccnc3O2)cc1OC (centres undefined)
 : · | 1.1% | -5 | -3 | 12 | -0.5
- COc1ccc(NC(=O)CCC(=O)Nc2nnc(C(F)(F)F)s2)c(OC)c1
 : 3 | -2.1%[38.3 µM] | 1 | 2 | -2.6 | 0.0

Next compounds:
SMILES	TRPML1 inh	PINK1 expr mod	Six1-Eya2 blk	CtBP-E1A blk	D2 agonist	TRPML1 ag
O=C(CCn1[nH]c(=O)c2ccccc2c1=O)NCCO	30	1.0%[38.3 µM]	5	-14	-2.7	1.1
Cc1c(C(=O)NCc2ccc(Cl)cc2)sc2nc3n(c(=O)c12)CCCCC3	13	2.5%	·	·	·	-0.5
O=C(c1ccco1)N1CCN(Cc2c(F)cccc2Cl)CC1	-29	-0.5%	6	·	-2.0	-0.6
COc1ccc(C(=O)NCCS(=O)(=O)N2CCc3ccccc3C2)c(OC)c1	-4	5.6%	-1	4	3.1	1.2
CCCC(=O)C1=C(O)C(C(=O)OC)C(C)(C)CC1=Nc1cccc([N+](=O)[O-])c1 (centres undefined)	·	0.2%	10	·	-2.0	·
Oc1ccc(-c2n[nH]c(=S)n2-c2ccc3c(c2)OCCO3)c(O)c1	-18	-0.9%	-4	2	-1.2	0.3

Screens (PubChem)
